AID504770 = growth inhibition of E. coli YBA685, primary screen, V. cholerae RctB inhibitors; 0.27% of 130,000 active; E. coli YBA685 rctB-dependent plasmid, OD600 growth, 3 h; active compounds read low; z-score (no concentration beside the values);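 active = z-score under -2 on both plates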;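 also: wells of about 30 µL received 100 nL stock; score is relative to mean and SD of the test wells; the first replicate is given; strong numbers were not always called active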
CapD inh = Bacillus anthracis CapD inhibitors, primary screen, biochemical, fluorescence intensity; CapD gamma-glutamyltranspeptidase (Bacillus anthracis Ames Ancestor); purified CapD enzyme, fluorescence intensity read-out; active compounds read low; some hits fall short of the stated cut; z-score (test concentration not listed); 0.23% of 140,000 active; AID 492967, 2010;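 active = z-score under -4 in either of two replicates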;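 also: stock transfer was 100 nL into about 40 µL; score is relative to mean and spread of the plate; one replicate is shown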
* hit, by the source's call; . = not tested or not shown. This is a subset, so the mix of outcomes need not match the whole.

| Structure | AID504770 | CapD inh |
| --- | --- | --- |
| Cc1ccc(CSc2ncc(C(F)(F)F)cc2Cl)cc1 | -0.15 | 9.8 |
| CC(C)(C)C(=O)/C(C#N)=C/c1ccc(N2CCOCC2)cc1 | -0.75 | . |
| COc1ccc(/C=C(\C#N)C(=O)Nn2c(-c3cc(OC)cc(OC)c3)nc3ccccc3c2=O)cc1 | . | -1.4 |
| CCNC(=O)c1c(C)c(C(=O)OCC)n(CC)c1C | -0.7 | -0.33 |
| CCNc1nc2c(c(=O)n(Cc3ccccc3)c(=O)n2C)n1Cc1ccccc1 | 0.9 | . |
| CCOC(=O)N/N=C1\CCS(=O)(=O)c2ccc(Cl)cc21 | 2 | -0.22 |
| Cc1ccc(N2C(=O)C(CC(=O)Nc3cccc(F)c3)N(C3CC3)C2=O)cc1 (stereo not given) | 0.9 | 0.17 |
| Cc1csc(C(=O)NNC(=O)OCCSCc2ccc3nonc3c2)c1Cl | . | -1.1 |
| C=CCSc1nc2ccccc2c(=O)n1CC=C | -0.35 | . |
| Cc1ccc(CC2SC(N3CCN(c4ccccc4)CC3)=NC2=O)cc1 (stereo not given) | -0.7 | -0.03 |
| COC(=O)c1ccccc1NC(=O)c1cccnc1 | 0.25 | 1.5 |
| O=C(O)C1C2CCC(C2)C1C(=O)Nc1ccc(Cc2ccncc2)cc1 (stereo not given) | 0.3 | 0.93 |
| CCCc1ccc(S(=O)(=O)N2CCN(c3cc(C(F)(F)F)nc4ccc(C)cc34)CC2)cc1 | . | 0.21 |
| Cc1cc(C(=O)CN(Cc2ccco2)C2CCS(=O)(=O)C2)c(C)n1Cc1cccs1 (stereo not given) | 0.45 | . |
| COc1cccc(OCCSc2nc(-c3ccccc3)cc(=O)[nH]2)c1 | -0.35 | 0.4 |
| CNC(=O)c1ccc2c(c1)CCCN2S(C)(=O)=O | 0.15 | -0.06 |
| Cc1nnsc1C(=O)Nc1ccccn1 | -1 | . |
| CCn1nc(C)cc1Nc1ccccc1 | 0.7 | -0.52 |
| C=C(C)CN=c1scc(-c2cc3ccccc3o2)n1/N=C/c1cccc(OC)c1O | -0.5 | . |
| Cc1cc(Cl)nc2ccccc12 | -0.35 | . |
| O=[N+]([O-])c1cccc(C2=Nc3ccc(Br)cc3C(c3cccc([N+](=O)[O-])c3)=Nc3ccc(Br)cc32)c1 | . | -0.59 |
| CC1=CC(=O)N(c2ccccn2)C1c1ccc(Cl)cc1 (stereo not given) | 0.4 | -0.17 |
| CC(=O)OC12CC3CC(C1)C(O)C(C3)C2 (stereo not given) | 0.35 | -0.33 |
| CCOC(=O)C1=C(C)N=C2SCCC(=O)N2C1c1ccccc1 (stereo not given) | -0.45 | -1.3 |
| CCc1nc(SCC(=O)N2CCCc3ccccc32)c2c(=O)n(C)c(=O)n(C)c2n1 | 0.1 | 0.27 |
| CC(C)n1cc(-c2ccccc2NC(=O)C(c2ccccc2)c2ccccc2)cn1 | . | -0.29 |
| CCc1ccc(C2NCc3ccccc3-n3cccc32)cc1 (stereo not given) | -0.3 | -0.28 |
| Cc1ccc(-n2ncc3c(NCC4CCCO4)ncnc32)c(C)c1 (stereo not given) | -0.2 | 0.48 |
| CCOC(=O)c1ccc(N2C(=O)CC(NCCc3ccc(S(N)(=O)=O)cc3)C2=O)cc1 (stereo not given) | 0.75 | 0.27 |
| CC(=O)c1cc2c(cc1O)OC(C)(C)C=C2 | 0.05 | . |
| O=C1CN(C(=O)c2ccccc2)C(c2ccc(F)cc2)c2cc(F)ccc2N1 (stereo not given) | 0.5 | -0.26 |
| Cc1ccc(S(=O)(=O)Nc2cccc(CCc3ccccn3)c2)cc1 | . | 0.16 |
| CCOC(=O)CSCc1noc(COc2ccc(Cl)cc2Cl)n1 | -0.6 | -0.55 |
| O=C(Nc1ccc(Cl)c(Cl)c1)C(F)(F)Oc1ccc(F)cc1 | . | -0.89 |
| CCCCNC(=O)Oc1ccc(C2=NCCS2)cc1 | -2.1 | -0.31 |
| CN1CCCC1=Nc1ccccc1C#N | 0.4 | 1.5 |
| Cc1c(N(CC(=O)N/N=C/c2ccccc2)S(=O)(=O)c2ccccc2)c(=O)n(-c2ccccc2)n1C | . | -0.68 |
| COc1cc(I)c(OC)cc1I | . | -0.72 |
| Clc1ccc(SCc2cc(N3CCCCC3)nc(-c3ccccn3)n2)cc1 | . | -0.22 |
| CC(C)CCNc1ncnc2c1sc1nc(-c3ccco3)c3c(c12)CCCC3 | -0.15 | 31 |
| CC1=Nc2ccccc2N=C(C)C1 | -0.5 | . |
| NC(=S)N/N=C/c1cn[nH]c1-c1ccccc1 | 0.4 | -0.47 |
| Cc1ccc(OCCSc2nc3ccccc3n2CCC(=O)O)cc1 | -0.15 | -0.025 |
| C#CC(C)(C)NC(=O)c1cccnc1Oc1ccccc1 | -0.7 | -0.28 |
| O=C1C=CC(=O)N1c1ccc(-c2csnn2)cc1 | -1.1 | -0.12 |
| O=C1NCCN1C(=O)C(c1ccccc1)c1ccccc1 | 0 | 0.05 |
| Clc1nc2ccc(Br)cc2s1 | -0.9 | . |
| CCCCNc1nc(-c2ccccc2)no1 | 0.2 | 0.94 |
| O=C(c1cccc(-n2c(=S)[nH]c3cc(Cl)ccc3c2=O)c1)N1CCN(C(=O)c2ccco2)CC1 | . | -0.33 |
| Cc1nc2ccccc2nc1CSc1nnc2ccccn12 | -0.6 | . |
| Cc1ccc(S(=O)(=O)NC(=O)N2CCN(c3nc(C)cc(C)n3)CC2)cc1 | . | -0.46 |
| CC(C)(C)c1cc(/C=N/n2c(N)nc3ccccc32)cc(C(C)(C)C)c1O | -0.15 | -1.1 |
| CCOC(=O)Cc1csc(NC(=O)c2ccc(Cl)cc2)n1 | 1.6 | 0.93 |
| CCN1CC(NC(=O)C2Cc3ccccc3CN2C(=O)OC(C)(C)C)CN1CC (stereo not given) | . | -1.1 |
| O=c1[nH]cnc2scc(-c3ccsc3)c12 | 0.65 | . |
| CCCCn1c(=O)c(C(=O)Nc2nc3ccc(Cl)cc3s2)c(O)c2ccccc21 | . | -0.17 |

(further entries)
| Structure | AID504770 | CapD inh |
| --- | --- | --- |
| N/C(=N/O)c1nccnc1Sc1ccc(Cl)cc1 | 0.85 | -0.8 |
| O=C(/C=C/c1ccccc1)N1CCC(c2ccccc2)C1 (stereo not given) | -0.6 | -0.84 |
| O=C(CSc1nc2ccccc2c(=O)[nH]1)c1ccc(S(=O)(=O)N2CCCCC2)cc1 | -1.8 | . |
| CC1CCCC1/C(=N/O)c1ccccc1 (stereo not given) | -0.55 | 0.05 |
| CN(Cc1ccccc1)CC(O)COCC1=CCC2CC1C2(C)C (stereo not given) | 2 | . |
| O=S(=O)(c1ccccc1Oc1ccc(Cl)cc1Cl)N1CCOCC1 | 0.3 | 1.3 |
| CCN(CC)CC(=O)N1N=C(c2ccc(OC)cc2)CC1c1cccc(OC)c1OC (stereo not given) | 0.05 | . |
| COc1ccc(C(=O)NNc2nc3ccccc3nc2C(F)(F)F)cc1 | . | -0.28 |
| COc1cccc(COC(=O)N2CCN(Cc3ccccc3SC(C)(C)C)CC2)c1 | . | 0.26 |
| CC1(C)C=C(C(N)=O)C(C)(C)N1 | 0 | 1.1 |
| Cc1ccc(NC(=O)N2CCN(C3c4ccccc4-c4ccccc43)CC2)cc1Cl | 1.5 | -0.72 |
| O=c1cc(NCCNc2cc(=O)oc3ccccc23)c2ccccc2o1 | 2.2 | -0.23 |
| CC1(C)N=C(Nc2ccccc2)SC1=N | 1.1 | 0.63 |
| CNC(=S)NNc1nc(N2CCCC2)nc(N2CCCC2)n1 | -0.45 | . |
| Cn1nc(OCC(=O)Nc2ccc(Cl)cc2Cl)cc1C(F)(F)F | -0.1 | 0.32 |
| Cc1nc(NCCCn2ccnc2)c2ccccc2n1 | -0.3 | 0.87 |
| Cc1ccc(S(=O)(=O)n2c([N+](=O)[O-])cnc2C)cc1 | . | -0.17 |
| O=S(=O)(NCc1cccnc1)c1ccccc1 | . | 0.07 |
| CC1CCCCN1C(=O)COC(=O)c1ccccc1NCc1ccco1 (stereo not given) | -0.2 | . |
| Cc1ccc(S(=O)(=O)C2(C(=O)NC3CCCC3)CC2)cc1 | -1.2 | -0.16 |
| Oc1[nH]c2ccccc2c1C=NCCC1=CCCCC1 | -1.1 | -1.2 |
| CC(C)CNc1cnnc2c(Cl)cccc12 | -0.1 | -1.9 |
| CCN=C1S/C(=C\c2cn(CC(=O)NCc3ccco3)c3ccccc23)C(=O)N1CC | -0.1 | . |
| CC(C)CCNC(=O)c1c[nH]n2c(=O)cc(CSc3ccc(Cl)cc3)nc12 | -0.5 | -0.69 |
| CC(=O)Nc1nnc(-c2ccc3c(c2)CCCC3)o1 | -0.25 | 0.21 |
| O=C(NCc1cccs1)NC(=O)c1c(Cl)cccc1Cl | . | -0.41 |
| O=C1C(=O)N(c2nncs2)C(c2ccc(F)cc2)/C1=C(/O)c1ccc(F)cc1 (stereo not given) | . | 0.23 |
| CC1NC(=S)N(c2ccc(C(C)C)cc2)C1=O (stereo not given) | -0.45 | . |
| COC(=O)c1ccccc1NS(C)(=O)=O | . | 0.78 |
| CCN(CC)S(=O)(=O)c1ccc(S(=O)(=O)NCc2ccc3c(c2)OCO3)cc1 | -0.7 | . |
| Cn1ncc2ccccc2c1=O | . | -0.72 |
| Cc1nnc(SCC(=O)Nc2cc(-c3ccc(Cl)cc3)nn2C)n1C | -0.75 | . |
| O=C(CSc1nnc(SCC(=O)NC2Cc3ccccc3C2)s1)NC1Cc2ccccc2C1 | . | 0.12 |
| COc1ccc(Nc2ncnc3nc[nH]c23)cc1 | -0.45 | -0.06 |
| CC(=O)N1CCC2(CC1)CC(=O)c1cc(OCC(=O)NCc3ccccc3)ccc1O2 | 1.5 | 4.6 |
| COc1ccc(OC)c(NC(=O)CSc2ncnc3c2oc2ccccc23)c1 | 0.55 | . |
| CCOC(=O)c1c[nH]c2cc(Cl)cc(Cl)c2c1=O | -0.4 | -0.48 |
| O=C(CCn1c(=O)oc2ccccc21)n1c(=O)oc2ccccc21 | 1.8 | . |
| CN(C)c1ccc(-c2nc(-c3ccc(Br)cc3)c(-c3ccc(Br)cc3)[nH]2)cc1 | . | 2.1 |
| NC(=S)NN=C1Cc2ccccc2C1 | 0.35 | 1.2 |
| COc1ccc(C(N)CCc2ccco2)cc1 (stereo not given) | -1.5 | . |
| COc1ccc(CNC(=O)c2cccc(NC(C)=O)c2)cc1OC | -0.15 | . |
| CN1CCN(C(=O)CCN2C(=O)/C(=C/c3ccccc3)SC2=S)CC1 | 0.2 | -0.3 |
| CC(C)c1ccc(OCCN2CCNCC2)cc1 | -2.9 | 0.005 |
| COc1ccc(NC(c2ccc(C)cc2)n2ncc3c(=O)n(C)c4ccccc4c32)cc1 (stereo not given) | 0.65 | 2.8 |
| CN1CCCN(Cc2coc3ccccc3c2=O)CC1 | -0.3 | 0.33 |
| CC(=O)c1ccc(S(=O)(=O)NC2CCN(Cc3ccc(OC(C)C)cc3)C2)cc1 (stereo not given) | . | -0.19 |
| CC(C(=O)N1CCCCC1)N1Cc2ccccc2C1=O (stereo not given) | -0.35 | -0.27 |
| COc1ccc(OCCNC(=O)N2CCN(C(C)C)CC2)cc1 | . | 0.39 |
| Cc1ccc(C)c(C(=O)Cn2cc(Br)ccc2=O)c1 | 2 | . |
| O=C(NCCc1cccc(F)c1)OCCc1ccccc1Cl | . | -0.88 |
| COCCOC(=O)C1=C(C)NC(C)=C(C(=O)OCCOC)C1c1ccc(-c2ccccc2[N+](=O)[O-])o1 | . | -0.74 |
| Nc1nc(N)nc(CCCn2c(-c3nonc3N)nc3ccccc32)n1 | . | 0.61 |
| CN1c2ccccc2N(C)C1/C=C/c1ccccc1 | -1.1 | . |
| N#CCc1[nH]nc(N)c1C#N | 0.35 | 0.095 |
| CC1CCN(CN2C(=O)N(CN3C(=O)N(CN4CCC(C)CC4)C(=O)C3(C)C)C(C)(C)C2=O)CC1 | 0.65 | 0.055 |

Whole records, quoted from the list:
`CCCCNC(=O)Oc1ccc(C2=NCCS2)cc1` is entered as AID504770 = -2.1; CapD inh = -0.31
`O=C(CSc1nc2ccccc2c(=O)[nH]1)c1ccc(S(=O)(=O)N2CCCCC2)cc1` is entered as AID504770 = -1.8; CapD inh = .
`Cn1ncc2ccccc2c1=O` is entered as AID504770 = .; CapD inh = -0.72

Additional results
| Structure | AID504770 | CapD inh |
| --- | --- | --- |
| O=c1[nH]c2nc[nH]c(=O)c2[nH]1 | . | 0.48 |
| Cn1nc(-c2ccc(N3CCOCC3)c(NS(C)(=O)=O)c2)c2ccccc2c1=O | 0.8 | . |
| N#C/C(=C/c1ccc(-c2ccc(Cl)c(C(=O)O)c2)o1)C(=O)NC1CCCC1 | 1.8 | . |
| Cc1ccc(-c2nc(-c3ccc(C)cc3)[nH]c(=O)n2)cc1 | -0.65 | -0.27 |
| CSc1nc2ccc(NC(=O)CCC(=O)c3cccs3)cc2s1 | -0.55 | . |
| Cc1ccc(/C=C/C(=O)Nc2cccc(NC(=O)/C=C/c3ccc(C)o3)n2)o1 | -0.55 | 6 |
| O=C1CC(/C=C/c2ccc(Cl)cc2)=Nc2ccccc2N1 | -0.3 | -0.99 |
| Cc1ccc2nc(NC(=O)CCc3nc4cc(S(=O)(=O)N5CCCCC5)ccc4n3C)sc2c1 | -0.9 | . |
| CC(=O)N1CCC2(CC1)Oc1ccccc1C1CC(c3ccccc3)=NN12 (stereo not given) | -0.9 | . |
| COc1cc(N)c(Cl)cc1C(=O)OCC(=O)c1ccc2c(c1)OCCO2 | 0.05 | . |
| COC(=O)C1(C(F)(F)F)N=C(C)OC(N2CCOCC2)=N1 (stereo not given) | -1.8 | -0.56 |
| COc1ccc2c(CC(=O)OCC(=O)Nc3ccccc3)coc2c1 | -0.4 | . |
| CCOC(=O)c1c(C)n(-c2ccccc2)c2ccc(OC)cc12 | . | 0.44 |
| COC(=O)c1sc2ccccc2c1NC(=O)Cc1ccccc1 | -0.95 | 77 |
| O=[N+]([O-])c1cccnc1Sc1ccccc1C1=NCCCN1 | . | -1.1 |
| Cc1c(C#N)c(NC(=O)CSc2cc(C)c3ccccc3n2)n(Cc2ccco2)c1C | -0.85 | . |
| CCCN(C(=O)c1ccccc1)c1c(N)n(Cc2ccccc2)c(=O)[nH]c1=O | -0.4 | . |
